# HNF4A DNA FP: change in binding of human HNF4A to DNA, primary screen, biochemical, fluorescence polarization, FITC-DNA | 1 h | Hepatocyte nuclear factor 4-alpha (Homo sapiens), P41235 | activity change, % at 10 µM | hit rate 0.3% among 360,000; in the data active = activity change above about 30%, passing the limit was not always enough;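 note: controls were the assay level and a saturating level of protein; the project sought stronger binding though the title names inhibitors; some compounds called inactive have numbers as strong as hits; positive values seem to mean higher polarization but the record does not say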
# Target sequence (P41235 whole entry, looked up): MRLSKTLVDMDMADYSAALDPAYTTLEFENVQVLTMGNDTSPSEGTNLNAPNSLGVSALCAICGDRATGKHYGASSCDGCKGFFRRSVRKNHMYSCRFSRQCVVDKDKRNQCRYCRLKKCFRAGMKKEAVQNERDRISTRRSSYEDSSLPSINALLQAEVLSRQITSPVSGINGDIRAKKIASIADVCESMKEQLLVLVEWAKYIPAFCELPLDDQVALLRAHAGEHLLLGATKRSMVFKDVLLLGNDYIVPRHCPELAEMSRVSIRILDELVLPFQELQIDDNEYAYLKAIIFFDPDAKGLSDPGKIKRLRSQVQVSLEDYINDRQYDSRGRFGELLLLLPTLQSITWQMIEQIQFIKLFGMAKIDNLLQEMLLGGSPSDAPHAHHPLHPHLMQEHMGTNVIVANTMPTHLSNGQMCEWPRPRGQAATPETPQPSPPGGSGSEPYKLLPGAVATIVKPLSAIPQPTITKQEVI
# An asterisk follows results filed as active. This is a subset (hit frequency here may not be typical).
SMILES,HNF4A DNA FP
O=C1CC2c3ccccc3CCN2C(=O)CN1Cc1ccccc1 (stereo not given),0.0
Nc1c(C(=O)Nc2ccccc2)sc2nc(N3CCOCC3)c3c(c12)CCCC3,2.0
NC(COCc1ccccc1)c1csc(Nc2ccc(C(=O)c3ccccc3)cc2)n1 (stereo not given),2.3
CSc1ccc(CN2CCC(C)(Oc3cccc(C#N)c3)C2)cc1 (stereo not given),-0.8
CC1=C(C(=O)N2CCCCCC2)CC(CC(=O)NC2CCCCC2)C(=O)N1Cc1ccc(C(C)(C)C)cc1 (stereo not given),1.1
CCOc1ccc(-c2cc(C(=O)Nc3cc(OC)c(OC)c(OC)c3)[nH]n2)c(C)c1,-0.3
OC[C@@H]1CN(Cc2ccncc2)C[C@H](n2cnc3c(NCc4ccco4)ncnc32)O1,-3.3
CC1Nc2ncnc(N3CCc4ccccc4C3)c2N(Cc2ccccc2)C1=O (stereo not given),10.3
Cc1ccc(S(=O)(=O)Nc2ccc(F)c(F)c2O)cc1,0.9
CCCCCCN1C[C@@H](n2cc(COC(=O)c3ccccc3)nn2)[C@H](O)C[C@@H]1c1ccccc1,0.1
CCCNC(=O)c1cc(C2CCCCN2C(=O)c2ccccc2)on1 (stereo not given),-0.4
CN(C)CCNc1nc(Oc2cccc(F)c2)c2sccc2n1,9.4
O=C(NCC1CCCO1)c1cccc(S(=O)(=O)Nc2ccccc2Cl)c1 (stereo not given),-0.9
CCCCn1nnnc1C(c1ccccc1)N1CCc2ccccc2C1 (stereo not given),-4.8
COc1ccc(C(NC(=O)C2CCN(Cc3cc(OC)cc(OC)c3)CC2)c2ccccn2)cc1 (stereo not given),0.1
CCOC(=O)c1ccc(Nc2ccc(C(C)=O)cc2)cc1,-2.4
CONC(=O)c1ccc(-c2cccc3nccn23)cc1,3.0
CCOc1ccc(S(=O)(=O)N2CCC(C(=O)Nc3ccccc3N3CCCC3)CC2)cc1,2.6
COc1ccc(S(=O)(=O)N2CCC[C@H]2C(=O)N2CCC[C@H]2C(=O)N[C@H](C)c2ccccc2)cc1C,-0.4
CC(C)C[C@H]1CNC(=S)N1C[C@H]1CCCN1C[C@H](CC(C)C)N1C[C@H](CC(C)C)N(CCc2ccccc2)C1=S,1.3
Cc1noc(C)c1-c1ccc(C(=O)NC2CCCCC2)c2occc12,1.2
c1ccc(COc2cccc(-c3cc4nc(NCCOc5ccccc5)ccn4n3)c2)cc1,2.8
CC(=O)c1cccc(NC(=O)C2(C)Cc3c(-c4ccccc4)ccnc3O2)c1 (stereo not given),-0.1
Cc1ccc(N2CCN(C(C(=O)Nc3c(C)cccc3C)c3ccccc3OC(F)(F)F)CC2)cc1 (stereo not given),4.5
Nc1[nH]c(C(=O)c2ccccc2)c(-c2cccnc2)c1C(=O)NCCc1ccc(Cl)cc1Cl,0.8

# Remaining list, next part:
SMILES,HNF4A DNA FP
COc1ccc(CNC(=O)c2ccc(-n3ccnc3)c3ccoc23)cc1OC,-1.5
COc1ccc(CN2C(=O)c3ccccc3C2c2nnnn2Cc2ccccc2)cc1OC (stereo not given),-4.1
Cc1ccc(Cc2c(-c3ccc(C#N)cc3)nc3c4ccccc4ccn23)cc1,4.9
COc1ccc(NC(=O)c2cc(C3CCCCN3S(=O)(=O)c3cccs3)on2)c(C)c1 (stereo not given),-3.8
CC[C@H](NC(=O)/C=C/[C@H]1O[C@@H](n2cc(C)c(=O)[nH]c2=O)C[C@@H]1O)c1ccccc1,-3.8
CC(C)CNC(=O)C1(C)CCCN1Cc1ccc(OC(F)(F)F)cc1 (stereo not given),0.1
CCOC(=O)C1(C)CCCN1C(=O)c1c(F)cccc1F (stereo not given),0.8
O=C1/C(=C/c2ccc(S(=O)(=O)O)cc2S(=O)(=O)O)CCc2ccccc21,6.2
CC(C)(C)c1ccc(CC(=O)N2CCC2(C)C(=O)NS(=O)(=O)c2ccc(C#N)cc2)cc1 (stereo not given),2.6
CC1(C(=O)NS(=O)(=O)c2cccc(OC(F)F)c2)CCN1C(=O)Cc1cccs1 (stereo not given),-1.6
CC1(C(=O)NCc2ccccc2Br)CCN1C(=O)C1(c2ccc(Cl)cc2)CC1 (stereo not given),-1.5
COC(=O)C[C@@H]1CC[C@H](NC(=O)Nc2cccc(F)c2)[C@@H](CO)O1,-2.8
O=C(NCCO)c1cccc(-c2ccc3nncn3c2)c1,19.8
O=C(Nc1cccc(Cl)c1)c1csc(COCCO)n1,-1.1
COc1ccc(NC(=O)C(c2cccc3ccccc23)n2c(=O)c(-c3ccco3)nc3ccccc32)cc1 (stereo not given),23.4
Cc1cc(C)cc(CC(=O)N2CCC2(C)C(=O)NS(=O)(=O)c2ccc(C(C)(C)C)cc2)c1 (stereo not given),-1.4
CCc1ccc2cc(C)cnc2n1,-2.4
COc1ccc(OC)c(NC(=O)Nc2nc(CN)cs2)c1,1.3
COc1cccc(C(O)c2nc(-c3ccc(F)cc3OC)cs2)c1 (stereo not given),2.5
CCOC(=O)[C@]12CCC=C1N(CCC1=CCCCC1)C(=O)[C@H](CC(=O)N1CCC(c3ccccc3)CC1)C2,-0.9
CCCS(=O)(=O)NC(=O)C1(C)CCCN(C(=O)c2cc(C)n(C(C)(C)C)n2)C1 (stereo not given),-1.5
COc1ccc([C@H]2N[C@]3(CCCN(Cc4ccccc4)C3=O)[C@H]3C(=O)N(C)C(=O)[C@@H]23)cc1,-0.8
CSCCNC(=O)C1(C)CCN1C(=O)c1cc(C)n(C)n1 (stereo not given),-1.0
CCCCNC(=O)C(NC(=O)c1ccccc1)C(=O)c1ccccc1 (stereo not given),-2.5
CC1(C(=O)O)CCCN1C(=O)c1cccc(F)c1 (stereo not given),3.9

# (continued)
SMILES,HNF4A DNA FP
Cc1nc2c(OCCC3CCCCC3)cccn2c1N(C)C(=O)CCC1CCCC1,1.5
O=C(NCc1ccccc1Cl)c1csc([C@@H]2O[C@H](CO)[C@H](O)[C@H](O)[C@H]2O)n1,3.1
NC(=O)c1cccc(-c2ccnc3c2CC(C(=O)Nc2ccc(Cl)cc2)O3)c1 (stereo not given),0.1
COC(=O)C[C@@H]1CC[C@H](NC(=O)CC2CC2)[C@@H](CO)O1,1.6
CN1OC[C@@H]2CN(C(=O)c3cccc4ccccc34)[C@H](c3ccccc3Br)C[C@@H]21,-3.5
COc1ccccc1-c1noc2c1C(=O)N(Cc1cn(C3CCCC3)nn1)CC2,1.0
C[C@@H]1CN([C@@H](C)CO)S(=O)(=O)c2ccc(Br)cc2O[C@@H]1CN(C)C(=O)c1ccncc1,0.8
COCCCn1cc(CN2CC(N3CCN(Cc4cccc(C)c4)CC3)CS2(=O)=O)nn1 (stereo not given),1.9
COCCNC(=O)C1CCCN(C(=O)c2nc3ccccc3s2)CC1 (stereo not given),2.1
C[C@H]1COc2cc(N3CCN(Cc4ccccc4F)CC3)ccc2S(=O)(=O)N1,-0.6
Cc1ccsc1-c1cc2nc(Nc3ccc(F)cc3)n(C)c(=O)c2s1,-1.5
CCCCCNC(=O)C(c1cc2ccccc2o1)n1c(=O)c(-c2ccccc2)nc2ccccc21 (stereo not given),4.9
CC1=C(C(=O)N2CCOCC2)CC(CC(=O)NC2CCCCC2)C(=O)N1Cc1ccc(C(C)(C)C)cc1 (stereo not given),-1.6
COc1cc(C=C(OC(C)=O)c2ccc3c(c2)OCO3)cc(OC)c1OC,0.7
O=C(NCCN1CCCC(O)C1)c1cc(COc2cccc(C(F)(F)F)c2)on1 (stereo not given),0.6
O=C(NCc1ccccc1)C1c2ccccc2OCC(=O)N1CCc1ccccc1 (stereo not given),1.4
COc1ccc(C(=O)N2CCCC(c3cc(C(=O)NCc4cccnc4)no3)C2)cc1 (stereo not given),1.6
CN1CCN(c2ncnc3c2ncn3[C@H]2CN(Cc3ccc(F)cc3)C[C@@H](CO)O2)CC1,-3.7
O=C(c1cccs1)N1C[C@@H](O)[C@H](n2cc(-c3ccc(F)cc3)nn2)C[C@@H]1c1ccc(Cl)cc1,-5.8
Oc1ccc(C[C@@H](CN2CCCC2CN2C(=S)NC[C@@H]2Cc2ccccc2)N2C[C@H](Cc3ccccc3)N(CC3CCCCC3)C2=S)cc1 (stereo not given in full),1.7
O=C(NCC1CCN(Cc2ccccc2)CC1)[C@H]1O[C@@H](n2ccc(=O)[nH]c2=O)[C@H](O)[C@@H]1O,0.6
COC(=O)[C@@]1(Cc2ccc(F)cc2)[C@H]2c3cc(C(=O)N4CCCC4)n(Cc4ccc(C)c(F)c4F)c3C[C@H]2CN1C(=O)c1ccccc1,7.0
FC(F)(F)c1ccccc1Cc1c(-c2ccccc2)nc2ccc(Br)cn12,9.7
CC1=C(C(=O)N(C(C)C)C(C)C)CC(CC(=O)NC2CC2)C(=O)N1CCCN1CCCC1=O (stereo not given),-2.4
COCCn1c(=S)[nH]c2cc(C(=O)N3CCN(C4CCCCC4)CC3)ccc2c1=O,-2.8

# A section from further up:
SMILES,HNF4A DNA FP
Cc1nc2c(OCCC3CCCCC3)cccn2c1N(C)C(=O)CCC1CCCC1,1.5
O=C(NCc1ccccc1Cl)c1csc([C@@H]2O[C@H](CO)[C@H](O)[C@H](O)[C@H]2O)n1,3.1
NC(=O)c1cccc(-c2ccnc3c2CC(C(=O)Nc2ccc(Cl)cc2)O3)c1 (stereo not given),0.1
COC(=O)C[C@@H]1CC[C@H](NC(=O)CC2CC2)[C@@H](CO)O1,1.6
CN1OC[C@@H]2CN(C(=O)c3cccc4ccccc34)[C@H](c3ccccc3Br)C[C@@H]21,-3.5
COc1ccccc1-c1noc2c1C(=O)N(Cc1cn(C3CCCC3)nn1)CC2,1.0

# Further records.
SMILES,HNF4A DNA FP
CCOc1ccc(Cl)cc1-c1cc(C(=O)NCc2ccccc2)[nH]n1,-0.9
O=C(Nc1ccc(Cl)cc1)C1Cc2c(-c3ccccc3)ccnc2O1 (stereo not given),2.8
CN(C)[C@H]1CCN([C@H]2CS(=O)(=O)N[C@@H]2COCc2ccccc2)C1,-2.1
O=C(COC(=O)c1ccc(S(=O)(=O)N2CCCC2)cc1)Nc1ccccc1Cl,-1.2
CC(C)c1cn(CC[C@@H]2CC[C@@H](NC(=O)C3CCCCC3)[C@@H](CO)O2)nn1,-1.9
COc1ccc(C(c2nnnn2-c2ccc3c(c2)OCCO3)N2CCN(C/C=C/c3ccccc3)CC2)cc1 (stereo not given),-3.3
O=C1NC[C@H](CCCCN2C[C@H](Cc3ccc(O)cc3)N(CCC3CCCCC3)C(=O)C2=O)N(CCC2CCCCC2)C1=O,-1.6
O=C1NC[C@H](CCCCN2C[C@@H](Cc3ccccc3)N(Cc3ccccc3)C(=O)C2=O)N(CCC2CCCCC2)C1=O,4.0
CC(=O)N1CCN(C(c2ccccc2)c2nnnn2C(C)(C)C)CC1 (stereo not given),2.8
COc1ccc(-c2oc3c(c2C#CC(C)(C)O)C(OCCO)CC3)cc1 (stereo not given),2.6
OC[C@@H]1CN(Cc2ccc(-c3ccccc3)cc2)C[C@H](n2cnc3c(NC4CC4)ncnc32)O1,0.9
COC(=O)c1ccc2nc(-c3ccc(F)cc3)c(Cc3ccccc3OC)n2c1,5.8
CCOC1=C2[C@@H](CN(S(=O)(=O)c3ccccc3C)[C@H]2c2ccc(Cl)cc2)[C@H]2C(=O)N(C3CCCCC3)C(=O)[C@H]2C1,1.3
Cc1ccc(OCC(=O)Nc2ccc(C(=O)Nc3ccccc3C(=O)O)cc2)cc1C,-1.8
CC1(C(=O)NS(=O)(=O)c2ccc(C#N)cc2)CCN1C(=O)C1(c2ccccc2)CCCC1 (stereo not given),5.7
Cc1cccc(OCC(=O)Nc2ccc(C(=O)Nc3ccccc3C(=O)O)cc2)c1,-0.6

# An excerpt from above in order of formula weight, ascending.
SMILES,HNF4A DNA FP
CC(=O)N1CCN(C(c2ccccc2)c2nnnn2C(C)(C)C)CC1 (stereo not given),2.8
O=C(Nc1ccc(Cl)cc1)C1Cc2c(-c3ccccc3)ccnc2O1 (stereo not given),2.8
CN(C)[C@H]1CCN([C@H]2CS(=O)(=O)N[C@@H]2COCc2ccccc2)C1,-2.1
COc1ccc(-c2oc3c(c2C#CC(C)(C)O)C(OCCO)CC3)cc1 (stereo not given),2.6
O=C(COC(=O)c1ccc(S(=O)(=O)N2CCCC2)cc1)Nc1ccccc1Cl,-1.2
O=C1NC[C@H](CCCCN2C[C@@H](Cc3ccccc3)N(Cc3ccccc3)C(=O)C2=O)N(CCC2CCCCC2)C1=O,4.0
